Screening results deposited in PubChem BioAssay by several laboratories.
INS promoter inh: inhibitors of insulin promoter-driven GFP, primary screen, imaging, TRM-6 cells (human fetal islet line), eGFP reporter, cell count | inhibition, % at 2 µM | hit rate 0.9% among 130,000 | reporter expression induced with tamoxifen;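 active = inhibition above the mean plus 3 SD, with well images judged a real hit on visual review, cut at about 60% in these data, passing the limit was not always enough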
PKD1 inh: inhibitors of human PKD1 kinase, biochemical, fluorescence polarization. Serine/threonine-protein kinase D1 (Homo sapiens), Q15139. PKD1 kinase fluorescence polarization assay. inhibition, %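 (about 10 µM by stock and volumes)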. hit rate 0.056% among 200,000. AID 797, 2007;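 active = inhibition of 50% or more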;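 note: controls were vehicle for no effect and a reference inhibitor for full effect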
RGS16-Gao: modulators of RGS16 binding to Galphao, primary screen, biochemical, human proteins, multiplexed bead flow cytometry. hit rate 0.38% among 220,000. binding response (% of control), % at 10 µM. bead-based flow cytometry RGS16-Galphao binding, fluorescence; actives lie on both sides;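 active = below 25% or above 175%, edge rows of some plates excepted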;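 note: Galphao activated by GDP with aluminum fluoride before binding; 100% = wells without compound and 0% = beads without RGS; some results beyond the cut were filed as inactive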
Target sequence (O15492 whole entry, looked up): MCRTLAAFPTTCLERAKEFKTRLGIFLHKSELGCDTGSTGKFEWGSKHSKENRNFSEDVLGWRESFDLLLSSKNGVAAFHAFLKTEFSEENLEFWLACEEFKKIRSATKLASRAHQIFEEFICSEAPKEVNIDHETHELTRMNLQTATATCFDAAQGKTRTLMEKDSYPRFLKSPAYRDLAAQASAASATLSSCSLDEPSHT
Target sequence (P09471 whole entry, looked up): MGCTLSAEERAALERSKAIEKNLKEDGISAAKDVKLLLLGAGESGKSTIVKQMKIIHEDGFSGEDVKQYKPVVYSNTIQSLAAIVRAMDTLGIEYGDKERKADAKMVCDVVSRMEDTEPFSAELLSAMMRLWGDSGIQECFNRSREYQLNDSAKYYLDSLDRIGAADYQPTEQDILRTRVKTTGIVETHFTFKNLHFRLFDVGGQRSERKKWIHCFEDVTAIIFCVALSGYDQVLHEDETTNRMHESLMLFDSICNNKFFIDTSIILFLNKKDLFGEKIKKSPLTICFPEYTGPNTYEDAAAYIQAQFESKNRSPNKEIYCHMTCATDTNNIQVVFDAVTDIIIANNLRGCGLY
HSV replic up: enhancers of HSV replication in host cells, fold increase, host cell viability; HSV replication augmentation in cells; AID 1956, 2009; hit rate 0.005% among 220,000; maximum fold increase;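 active = peak rise of 1.5-fold or more in the series; tested in PC3 cells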;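 note: first round at 10 µM; read as green reporter fluorescence; hits show the peak of a series up to 25 µM; 1 = signal of infected wells without compound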
GALR2 ag: GALR2 receptor agonists, primary screen, cell-based | Galanin receptor type 2 (Homo sapiens), O43603 | GALR2-expressing cells, agonist activation read-out | activation, %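 (tested at 5 µM)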 | hit rate 0.48% among 140,000 | AID 803, 2007;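 active = above mean plus 3 SD of all compounds, about 5% in these data, not always enough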;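 note: 0% = vehicle buffer wells and 100% = reference agonist at full effect; tested in CHO reporter cells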
Target sequence (O43603 whole entry, looked up): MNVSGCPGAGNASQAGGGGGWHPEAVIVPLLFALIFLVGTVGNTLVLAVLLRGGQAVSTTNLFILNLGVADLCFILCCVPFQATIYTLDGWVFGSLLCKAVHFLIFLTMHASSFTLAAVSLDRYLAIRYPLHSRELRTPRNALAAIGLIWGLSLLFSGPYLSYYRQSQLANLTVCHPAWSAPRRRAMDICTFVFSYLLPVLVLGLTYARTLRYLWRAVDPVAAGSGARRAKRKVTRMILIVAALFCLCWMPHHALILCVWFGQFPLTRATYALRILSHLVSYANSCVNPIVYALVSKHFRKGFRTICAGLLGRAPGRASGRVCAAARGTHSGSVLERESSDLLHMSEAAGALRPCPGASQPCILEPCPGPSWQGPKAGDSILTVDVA
INS promoter inh cell count: also measured in INS promoter inh; calls as there; normalized cell count, %; measured here: cell count, toxicity; reference of the scale not given here;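 cells exposed to compound for 48 h; stained nuclei by imaging scaled within each plate; lower means fewer cells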
HSV replic up primary fold: recorded beside HSV replic up, whose call it bears; fold increase; compound at 10 µM; measured here: primary screen fold increase 10 uM; tested in PC3 cells;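 GFP signal in the first replicate; 1 = infected wells without compound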
The depositor's hits bear a star; i = inactive; · = not tested or not shown.

SMILES	INS promoter inh	INS promoter inh cell count	PKD1 inh	RGS16-Gao	HSV replic up	HSV replic up primary fold	GALR2 ag
CCc1ccc2nc3sc(C(=O)N4CCc5ccccc54)c(N)c3cc2c1	·	·	3	99	i	1.2	-0.1
COC(=O)c1c(NC(=O)C2CC=CCC2C(=O)O)sc(C(N)=O)c1C (configuration not stated)	14	136	0	57	·	·	-0.3
Cc1nn(C(C)CC(=O)O)c(C)c1C (configuration not stated)	-53	128	0	90	i	1	-2.4
CCOC(=O)c1c(C)[nH]c(C)c1C(=O)COC(=O)CCOc1ccccc1OC	·	·	0	99	i	1	-0.1
Cn1c(NC(=O)CCc2ccccc2)cc(=O)n(C)c1=O	·	·	16	109	i	0.9	-2.6
COc1cc(/C=N/NC(=O)c2cc(-c3ccccc3OC(C)C)nc3ccccc23)ccc1O	·	·	2	106	i	0.74	0.0
CC(=O)Nc1ccc(NC(=O)C2c3ccccc3Oc3ccccc32)cc1	-18	141	-3	110	i	0.92	·
CCn1nc(C)c(NC(=O)/C=C/c2cnn(C)c2C)c1C	-52	74	1	83	i	1.1	0.1
CC(C)CCNc1nc2c(c(=O)[nH]c(=O)n2C)n1CC(O)COC(C)C (configuration not stated)	21	76	-15	98	i	0.92	1.0
CCOc1ncccc1C(=O)OCC(=O)Nc1c(C)cccc1C	-56	118	-4	97	·	·	-0.3
C=CCNc1nnc(Cl)c2ccccc12	35	82	-19	103	i	1	-2.8
CCS(=O)(=O)N1Cc2ccccc2CC1C(=O)Nc1nccs1 (configuration not stated)	32	133	-1	98	i	0.94	0.3
Cc1[nH]c2ccccc2c1/C=N/Nc1nc(Nc2ccc(F)cc2)nc(N2CCOCC2)n1	-31	90	-14	110	i	0.64	-1.9
COC(=O)c1sc2ccccc2c1C(=O)OC	·	·	-4	106	i	1	-2.9
Cc1cc(C)n2c(SCC(=O)NCc3ccco3)nnc2n1	·	·	5	99	i	0.89	-2.3

Filtered by structure: the entries above with an NH in an aromatic ring
SMILES	INS promoter inh	INS promoter inh cell count	PKD1 inh	RGS16-Gao	HSV replic up	HSV replic up primary fold	GALR2 ag
CCOC(=O)c1c(C)[nH]c(C)c1C(=O)COC(=O)CCOc1ccccc1OC	·	·	0	99	i	1	-0.1
CC(C)CCNc1nc2c(c(=O)[nH]c(=O)n2C)n1CC(O)COC(C)C (configuration not stated)	21	76	-15	98	i	0.92	1.0
Cc1[nH]c2ccccc2c1/C=N/Nc1nc(Nc2ccc(F)cc2)nc(N2CCOCC2)n1	-31	90	-14	110	i	0.64	-1.9

(listing goes on)
SMILES	INS promoter inh	INS promoter inh cell count	PKD1 inh	RGS16-Gao	HSV replic up	HSV replic up primary fold	GALR2 ag
CC(NC(=O)COc1ccccc1)C(c1ccccc1)N1CCN(C)CC1 (configuration not stated)	-23	103	-3	101	i	0.89	-0.6
CC(C)(C)NC(=S)NCc1ccc2c(c1)OCO2	-20	113	2	94	i	0.98	-1.0
Cc1ccc(-n2c(SCc3nc4ccccc4[nH]3)nnc2-c2ccncc2)cc1	13	144	-3	104	i	1.1	-0.1
Cc1cccc(CNc2ncc(-c3cccc([N+](=O)[O-])c3)n2C)c1	·	·	4	92	i	0.95	·
COC(=O)c1cc(NC(=O)CN2CCN(C(C)=O)CC2)cc(C(=O)OC)c1	·	·	-5	102	i	1	·
COc1ccc(S(=O)(=O)N2CCSC2c2ccccc2)cc1 (configuration not stated)	-15	99	6	103	i	1	0.3
CC1(C)[C@@H](O)CC[C@]2(C)C3C(O)C=C4[C@H]5C[C@@](C)(CO)CC[C@]5(C)CC[C@]4(C)[C@]3(C)CC[C@@H]12 (some centres not stated)	·	·	·	96	i	0.8	·
CN(C)CCC(c1ccc(Br)cc1)c1ccccn1 (configuration not stated)	-9	149	14	103	i	0.77	-0.7
Cc1cnccc1CN(C)Cc1cn(C)nc1-c1ccc(Oc2ccccc2)cc1	17	71	-2	72	i	0.89	·
COc1ccc(Cl)cc1C(=O)NCc1cnn(C)c1C	17	110	-3	110	i	0.84	-2.3
Cc1ccc(-c2nnn(CC(=O)N(CC(=O)NC3CCCCC3)c3ccc(F)c(Cl)c3)n2)o1	0	64	-7	92	i	0.8	-1.6
COC(=O)c1oc2c(c1C)C(=O)CC(C)(C)C2	·	·	-7	101	i	0.92	·
Cc1c(NS(=O)(=O)c2ccc3[nH]c(=O)[nH]c3c2)c(=O)n(-c2ccccc2)n1C	47	134	-4	101	i	1.1	-2.4
O=C(COC(=O)c1c2c(nc3ccccc13)/C(=C\c1cccs1)CCC2)Nc1ccccc1Cl	-13	104	1	100	i	0.96	-1.0
Cc1nnc(SCc2ccc(F)cc2)n1NC/C=C/c1ccccc1	·	·	-5	·	i	0.88	-2.1
COC(=O)CSc1nc(-c2cccs2)ccc1C#N	·	·	-6	92	i	0.82	-2.0
CCOC(=O)COc1ccc2c(c1)C(=O)CC1(CCCCC1)O2	-38	116	-6	44	i	0.99	-0.8
COc1ccc(-n2c(C)n[nH]c2=O)cc1	14	82	-3	99	i	0.98	-1.0
COc1ccc2nc(SCC(=O)Nc3nonc3C)[nH]c2c1	·	·	-7	106	i	0.93	·
Cc1cc(-c2cccnc2)c(C#N)c(SCc2cccc(F)c2)n1	23	105	8	105	i	1	0.5
CCCC(=O)Nc1ccc(C(=O)NCC(=O)OCC)cc1	-34	77	-6	96	i	1	-2.0
C=CCN1C=CC=C/C1=C1\SC(=S)N(C)C1=O	7	104	1	101	i	0.99	·
Cc1cccc(C)c1NC(=O)CNC(=O)C(NC(=O)c1ccc(C(C)(C)C)cc1)C(C)C (configuration not stated)	·	·	4	100	i	0.94	-0.1
CC(C)(C)c1cc(P(=O)(c2ccccc2)c2ccccc2)ccc1O	·	·	·	98	i	0.92	·
COc1ccc(OC)c(NC(=O)CSc2nc3ccccc3c3nc4ccccc4n23)c1	·	·	0	126	i	1.1	-0.2
CN(C)S(=O)(=O)c1ccc(C(=O)Nc2nnc(-c3ccco3)o2)cc1	33	94	-3	95	i	0.84	·
COCCNC(=O)C(OC(=O)CC1Sc2ccccc2NC1=O)c1ccccc1 (configuration not stated)	-414	52	-5	145	i	1	0.0
CC(=O)c1cccc(NC(=O)C23CC4CC(C2)CC(n2cncn2)(C4)C3)c1	14	85	1	102	i	0.96	-2.4
CCC1Oc2ccccc2N(CC(=O)NCCCN2CCN(Cc3ccccc3)CC2)C1=O (configuration not stated)	-12	93	-2	102	i	1.2	-2.4
CCCc1ccc(NS(=O)(=O)c2c(C)oc(C)c2C(=O)OC)cc1	·	·	·	102	i	0.96	·
CCS(=O)(=O)N1CCN(c2ccc(C(=O)N3CCOCC3)cc2[N+](=O)[O-])CC1	·	·	·	99	i	0.94	·
CN1/C(=C/C2CC(=O)NC2=O)C(C)(C)c2ccccc21 (configuration not stated)	·	·	2	102	i	0.88	-2.2
CCOc1cc(C(=O)Nc2cc(=O)n(C)c(=O)n2C)cc(OCC)c1OCC	-19	107	-7	102	i	0.92	-0.9
COc1ccc(OC)c(S(=O)(=O)Nc2ccccc2F)c1	-186	131	0	81	i	0.95	-0.5
COc1ccccc1CNCC(O)Cn1c2ccccc2c2ccccc21 (configuration not stated)	2	123	-3	100	i	0.5	3.0
CCC(Sc1ccc2nnc(-c3ccc(OC)c(OC)c3)n2n1)C(=O)O (configuration not stated)	·	·	-2	98	i	1	-0.7
CCC(c1c(C)[nH]oc1=O)c1c(C)[nH]oc1=O	·	·	2	105	i	0.95	-1.0
CC1CC(NS(=O)(=O)c2cccs2)CC(C)(C)C1 (configuration not stated)	-121	120	-7	97	i	0.83	-1.1
CC(=O)c1cccc(NC(=S)N2c3ccccc3CC2C)c1 (configuration not stated)	11	117	6	102	i	0.99	·
CCOc1ccc(NC(=O)CCCn2c(=S)[nH]c3ccsc3c2=O)cc1	·	·	-5	101	i	0.9	·
O=C(Nc1ccccc1)N1CCc2scc[n+]2-c2ccccc21	31	87	-15	3	i	0.92	-0.7
O=S(=O)(c1cccc(NC(=S)N2CCN(c3ccc(F)cc3)CC2)c1)C(F)F	·	·	-5	99	i	0.98	-0.4
CC(C)C(=O)c1cc2c(cc1NC(=O)Nc1cccc3ccccc13)OCCO2	-62	116	-9	99	·	·	-0.9
O=C(Cn1cnc2sc(-c3ccccc3)cc2c1=O)NCCc1ccccc1	14	107	-2	102	·	·	-1.4
CCOCCCNC(=O)C(Cc1ccccc1)NS(=O)(=O)c1ccc2c(c1)c(=O)n(C)c(=O)n2C (configuration not stated)	-121	128	1	103	i	0.92	·
CCOC(=O)N1CCN(CC(=O)c2ccc3c(c2)CCN3C(C)=O)CC1	·	·	4	110	i	1	-4.0
COc1cccc(CNC(=O)CCS(=O)(=O)c2cccs2)c1	13	75	-9	98	i	0.92	-1.2
COc1cc(C(=O)Nc2ccc(C)cc2)c(-n2cnnn2)cc1OC	·	·	-2	98	i	1	·
C=CCn1c(SCC(=O)Nc2cccnc2Cl)nnc1-c1ccccc1F	15	149	14	107	i	1.1	-0.2
CCOC(=O)c1ccc(NC(=O)CN2CCN(c3ccccc3)CC2)cc1	39	82	-2	103	i	0.74	-0.9
O=C(Cc1coc2ccc3ccccc3c12)NCc1ccccc1	23	47	5	99	i	0.93	-1.9
O=C(CN1CCN(S(=O)(=O)c2ccc(Cl)cc2)CC1)Nc1ccc2c(c1)CCC2	0	66	4	99	i	0.85	-1.6
CCSc1ccccc1C(=O)Nc1ccc(S(=O)(=O)NC(C)=O)cc1	·	·	2	107	i	1.1	·
O=C(CO/N=C/c1cccc([N+](=O)[O-])c1)Nc1ccc2ccccc2c1	-3	137	-3	102	i	0.89	0.3
COc1ccc(NC(C)=O)cc1S(=O)(=O)NC(Cc1ccccc1)C(=O)O (configuration not stated)	·	·	·	106	i	0.96	·
O=C(COC(=O)c1cc(F)cc(F)c1)Nc1cccnc1Cl	·	·	-1	97	i	0.92	·
Cc1ccc(/C(N)=N/OC(=O)N2c3ccccc3Sc3ccccc32)cc1	-4	65	-5	·	i	0.87	-1.5
N#Cc1c(N)nc2c(c1-c1ccco1)CCCCC2	67	163	-4	·	i	0.91	-0.8
Cn1nc(C(F)(F)F)c(C#N)c1N1CCN(c2cccc(C(F)(F)F)c2)CC1	·	·	5	106	i	0.96	-2.6
CC(C)(C)NC(=O)c1cccc2c1C(=O)c1ccccc1-2	·	·	·	96	i	1.2	·

More records
SMILES	INS promoter inh	INS promoter inh cell count	PKD1 inh	RGS16-Gao	HSV replic up	HSV replic up primary fold	GALR2 ag
CCCC(=O)NCCCc1nc2ccccc2n1C	·	·	12	103	i	0.78	-1.1
COc1cc(C(=O)OCC(C)=O)cc(NC(=O)c2ccco2)c1OC	44	66	7	115	i	0.93	·
CCOC(=O)CCCC(=O)N1CCOCCOCCN(C(=O)CCCC(=O)OCC)CCOCCOCC1	36	51	3	115	i	0.77	·
C[C@@H]1CC=C[C@H]2[C@H]1C(=O)N(Cc1ccccc1)[C@H]2c1ccc(/C=C/c2ccccc2)cc1F	·	·	·	100	i	1	·
O=S(=O)(NCc1ccccc1)c1ccc(S(=O)(=O)N2CCCC2)cc1	-56	78	3	109	i	1	·
O=[N+]([O-])c1cccc(S(=O)(=O)Nc2nc3ccccc3nc2Nc2cccc(S(=O)(=O)N3CCCCC3)c2)c1	·	·	0	120	i	0.99	-1.9
CC(C)(C)NCc1cc(Br)ccc1OCc1cccs1	·	·	-5	103	i	0.87	-0.7
Cc1cc(NC(=O)CSc2nnc(-c3ccco3)o2)no1	0	100	-7	·	i	0.89	-2.4
C=CCN(c1ccccc1)S(=O)(=O)c1cccc(C(=O)Oc2ccc3c(C)cc(=O)oc3c2)c1	-26	117	-1	95	i	0.91	0.3
CCN1CCN(c2cc3c(cc2F)c(=O)c(C(=O)O)cn3C2CC2)CC1	23	120	-13	106	i	1.2	0.3
CCOC(=O)c1nn(-c2ccc(Cl)cc2)c2nc(-c3ccc(C)cc3)c(C#N)c(=O)n12	-3	89	-4	103	i	0.95	0.5
Cc1ccc2[nH]cc(C(=O)CN3CCOCC3)c2c1	-18	65	-5	94	i	0.8	-2.5

Molecules shown so far that contain a cyano group (5):
SMILES	INS promoter inh	INS promoter inh cell count	PKD1 inh	RGS16-Gao	HSV replic up	HSV replic up primary fold	GALR2 ag
COC(=O)CSc1nc(-c2cccs2)ccc1C#N	·	·	-6	92	i	0.82	-2.0
Cc1cc(-c2cccnc2)c(C#N)c(SCc2cccc(F)c2)n1	23	105	8	105	i	1	0.5
N#Cc1c(N)nc2c(c1-c1ccco1)CCCCC2	67	163	-4	·	i	0.91	-0.8
Cn1nc(C(F)(F)F)c(C#N)c1N1CCN(c2cccc(C(F)(F)F)c2)CC1	·	·	5	106	i	0.96	-2.6
CCOC(=O)c1nn(-c2ccc(Cl)cc2)c2nc(-c3ccc(C)cc3)c(C#N)c(=O)n12	-3	89	-4	103	i	0.95	0.5
